# Screens: PubChem BioAssay, Fisher Drug Discovery Resource Center
# NPYLR7 ag: agonists of mosquito NPYLR7 receptor, primary screen, cell-based, Aedes aegypti, calcium fluorescence, mosquito biting behavior; HEK293T NPYLR7/Galpha15, GCaMP6s calcium fluorescence; hit rate 0.15% among 270,000; activation, % at 10 µM; in the data active means activation above about 40%;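 further: 0% = vehicle and 100% = reference agonist at the receptor; some compounds past the cut are filed as inactive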
# NPYLR7 ag max-min: also measured in NPYLR7 ag; calls as there; activation, %; measured here: Max-Min RFU normalised activation; some inactives read as strong as hits;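 span of the calcium signal over five minutes; 0% = vehicle and 100% = native peptide agonist; compound fluorescence can raise it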
# * = called active by the depositor; & = joins results of further samples.
nr	Structure	NPYLR7 ag	NPYLR7 ag max-min
1	Cc1cc(C(=O)Cn2cc([N+](=O)[O-])ccc2=O)c(C)n1CC1CCCO1 (stereo not drawn)	-2	-4
2	CN(CCc1ccccn1)c1ncccc1CNc1cnc2ccccc2n1	4	4
3	CCOC(=O)c1ccc2c(c1)nc(SCc1nc(-c3ccc(C(F)(F)F)cc3)oc1C)n2CCc1ccc(OC)cc1	14	14
4	COc1ccc2cc(CN(C)C(=O)CCl)ccc2c1	-3	-7
5	O=C(CSc1nc2ccccc2o1)NCc1cc(-c2ccc3c(c2)OCCO3)on1	6	5
6	Nc1cccc(-c2cccc3ccnn23)n1	8	6
7	Cc1cncc(C(=O)N(C)CCCOc2c(C)cccc2C)c1	-2	-2
8	COC(=O)CCN1CC(OCc2cccc(OC)c2)CN(C(=O)c2ccsc2)CC1=O (stereo not drawn)	5	-5
9	COc1ccc(C)cc1NC(=O)CNC(=O)c1cc2n(n1)CCCN(C)C2	14	5
10	CC(C)c1ccc(C2c3cc4c(cc3OC(=N)C2C#N)OCO4)cc1 (stereo not drawn)	6	3
11	CN(CCCC(=O)O)C(=O)C1CCCC1	-2	-3
12	CCC1CN(C(=O)c2ccc(O)cc2)CCC(=O)N1Cc1ccccc1 (stereo not drawn)	-1	-2

nr	Structure	NPYLR7 ag	NPYLR7 ag max-min
13	O=C(Nc1n[nH]c(C(F)(F)F)n1)C1CCN(C(=O)c2ccoc2)CC1	9	7
14	COc1cccc(CN2CCNC(=O)C2CC(=O)NCC(F)(F)F)c1OC (stereo not drawn)	11	9
15	Cc1cc(C)c(C(N)=O)c(Oc2ccc(Br)cc2)n1	7	6
16	O=C(c1cccc2c1OC(F)(F)O2)N(Cc1ccccc1)[C@H]1C[C@H]2CCOC[C@@]2(c2ccccc2)C1	3	5
17	CCc1ccc(-c2nc(CSc3nc(=O)[nH]c(C)c3C(C)=O)cs2)cc1	-4	-6
18	Cc1nc(C)c(CN2CCC(C(=O)Nc3cccc(-c4cccc(Cl)c4)c3)CC2)nc1C	18	4
19	Cc1cc(C)nc(SC(C)C(=O)N(C)Cc2c(C)noc2C)n1 (stereo not drawn)	5	5
20	Cc1noc(C)c1CSCC(=O)NNC(=O)CC12CC3CC(CC(C3)C1)C2	2	-1
21	COC1=C[C@@H](C)C2CC3OC(=O)C[C@H]4C(C)=C(OC)C(=O)C([C@@]2(C)C1=O)[C@@]34C (stereo partly drawn)	2	1
22	CN1C(=CC(=O)C(F)(F)F)Sc2ccccc21	3	2
23	CCNC(=O)[C@@]1(OCc2cccc(C)c2)CC(OCc2ccccc2)[C@H](O)[C@H](O)C1 (stereo partly drawn)	5	7
24	Cc1cc(C)n(CCCN(C)C(=O)[C@H]2CCCO2)n1	9	6

nr	Structure	NPYLR7 ag	NPYLR7 ag max-min
25	COc1ccc(Cl)c2c1N(C(=O)c1ccc(=O)n(C)c1)CCC2	10	15
26	O=C1Nc2ccccc2C1(O)C1(O)C(=O)Nc2ccccc21 (stereo not drawn)	7	7
27	O=C(c1ccc2nc(C3CCCCC3)oc2c1)N1CCCCC1c1ccccn1 (stereo not drawn)	11	11
28	C#CCOCC(O)CN(Cc1cccn1Cc1cccc(F)c1)C1CC1 (stereo not drawn)	-4	0
29	Nc1ccc(S(=O)(=O)Nc2nccs2)cc1	-14&0&0	-16&-4&0
30	CC(c1ccccc1)n1cnc2c(nnn2-c2ccc(Cl)cc2)c1=O (stereo not drawn)	-9	-10
31	c1ccc2c(N3CCN(Cc4cccc5nccnc45)CC3)ncnc2c1	4	2
32	CCc1ccccc1N1CCN(C(=O)Nc2ccccc2)C(C)C1=O (stereo not drawn)	12	29
33	COCCNc1nc(Nc2ccc(F)cc2)c2nccnc2n1	12	11
34	CC(/C=C1N=C(/C=C/c2ccc(Cl)cc2)OC\1=O)=C\c1ccccc1	-18	-20
35	COCCN(Cc1cccc(C(F)(F)F)c1)Cc1cccn1Cc1ccc(F)cc1	0	6
36	Cc1cccc(-c2cccc(NC(=O)C3CCCN(C(=O)Cn4cnnn4)C3)c2)c1 (stereo not drawn)	4	0

nr	Structure	NPYLR7 ag	NPYLR7 ag max-min
37	Cc1cc(=O)[nH]c(-n2nc(-c3cccs3)cc2N)n1	-5	-6
38	CCCC(=O)N1CCC1(C)C(=O)Nc1ccc2c(c1)OCCO2 (stereo not drawn)	4	1
39	Cc1cc(C)n(-c2cc(O)c(-n3nc(C)cc3C)cc2O)n1	13	8
40	O=C(NC1CCCC1)C1CC(=O)N(C2CCCCCC2)C1 (stereo not drawn)	3	1
41	O=S(=O)(c1ccc(Br)cc1)N1CCNCC1	-3&3	-3&2
42	CCOC(=O)CCCNC(=O)N1CCN(c2ncccc2C(=O)NCc2ccc3c(c2)OCO3)CC1	12	-3
43	O=C(Nc1ccc(N2CCC(NCC3COc4ccccc4O3)CC2)cc1)C1CCCC1 (stereo not drawn)	21	11
44	Cc1cc(-c2nccn2CC2CCS(=O)(=O)C2)oc1C (stereo not drawn)	1	0
45	COc1cc(C)c(CNCc2cccnc2N2CCN(C(C)=O)CC2)cc1C	8	2
46	Cc1ccc(-c2ccc(=O)n(CCCNC(=O)Nc3ccc(C(F)(F)F)cc3)n2)cc1	-3	-4
47	FC(F)(F)c1ccc(-c2nc(CSc3nc4ccccc4s3)cs2)cc1	23	16
48	COc1c(F)ccc(C(=O)N(C)Cc2nc(C3CC3)no2)c1F	7	2

nr	Structure	NPYLR7 ag	NPYLR7 ag max-min
49	Cc1cccc(N2C(=O)C3C4C=CC(C5CC45)C3C2=O)c1C (stereo not drawn)	5	3
50	O=C(C1CCCN1Cc1ccccc1)N1C[C@H]2CC=CC[C@H]2C1 (stereo partly drawn)	7	3
51	COCCNS(=O)(=O)c1ccc(OC)c(N2CCN(C(=O)c3ccc(C#N)cc3)CC2)c1	-11	-4
52	CCCCNC(=O)Cc1noc(CNc2ccccc2Cl)n1	5	4
53	Cc1cc(C)c2ncc(C#N)c(NCCS(C)(=O)=O)c2c1	0	15
54	CCOCCCN(CC(=O)N(Cc1ccccc1)Cc1sccc1C)C(=O)Nc1ccc(SC)cc1	14	11
55	CCNC(C)c1ccc(C#N)cc1 (stereo not drawn)	5	3
56	O=C1OC(c2ccccc2)=NC1=Cc1ccc(C(F)(F)F)cc1	-2	-5
57	Cc1ncc(C(=O)N(CCO)CCSc2ccc(Cl)cc2)cn1	-2	-8
58	CN1CCC(N(C)CC(NC(=O)N(C)Cc2cccc(O)c2)c2ccccc2)CC1 (stereo not drawn)	0	18
59	CC1(C)CC(OC(=O)CCCCC(=O)OC2CC(C)(C)NC(C)(C)C2)CC(C)(C)N1	0	-1
60	Cc1nn(C)c(Cl)c1CN(C)CC(C)N1CCOCC1 (stereo not drawn)	4	2

# Numbers 55 through 60, reprinted for reference:
nr	Structure	NPYLR7 ag	NPYLR7 ag max-min
55	CCNC(C)c1ccc(C#N)cc1 (stereo not drawn)	5	3
56	O=C1OC(c2ccccc2)=NC1=Cc1ccc(C(F)(F)F)cc1	-2	-5
57	Cc1ncc(C(=O)N(CCO)CCSc2ccc(Cl)cc2)cn1	-2	-8
58	CN1CCC(N(C)CC(NC(=O)N(C)Cc2cccc(O)c2)c2ccccc2)CC1 (stereo not drawn)	0	18
59	CC1(C)CC(OC(=O)CCCCC(=O)OC2CC(C)(C)NC(C)(C)C2)CC(C)(C)N1	0	-1
60	Cc1nn(C)c(Cl)c1CN(C)CC(C)N1CCOCC1 (stereo not drawn)	4	2

# Remaining list, next part:
nr	Structure	NPYLR7 ag	NPYLR7 ag max-min
61	O=c1c(Oc2ccc(-c3ccccc3)cc2)coc2cc(O)ccc12	-1	-5
62	CC(Oc1cccc(I)c1)C(=O)NCc1ccccc1Cl (stereo not drawn)	15	11
63	COc1ccc(C(=O)N2CCSC23C(=O)N(Cc2cccc(C#N)c2)c2ccc(C)cc23)cc1 (stereo not drawn)	-3	10
64	Cn1c(=O)n(C)c2cc3c(cc21)[nH]c(=O)c(=O)n3Cc1ccccc1	8	5
65	O=C(CCC1CCN(C(=O)C2CCCC2)CC1)N1CCN(c2ccccc2)CC1	3	-1
66	CN(CC1Cc2ccccc2O1)C(=O)c1cn(C2CCCCCC2)nn1 (stereo not drawn)	1	-2
67	Cc1ccc(CC(=O)NCc2ccccc2N2CCCC2)cc1	1	-1
68	C=CCNC(=O)C(NC(=O)c1cccc(C)c1)C1CCN(C(=O)c2ccccc2OC)CC1 (stereo not drawn)	-1	8
69	Cc1cc(N2CCCC2)ccc1NC(=O)CCl	1	1
70	CC1(C)C2CC=C(C=NN3C(=O)NC4(CCCCC4)C3=O)C1C2 (stereo not drawn)	-1	30
71	O=C(c1ccccc1N1CCOCC1)N1C[C@H]2C[C@H](O)[C@H](O)C[C@H]2C1	5	4
72	Cc1nc2ccc(C(=O)N3CCN(C)CC3)cn2c1N(C)CC1CCCCC1	-5	-9

# Fetched by compound from the list above (two):
nr	Structure	NPYLR7 ag	NPYLR7 ag max-min
72	Cc1nc2ccc(C(=O)N3CCN(C)CC3)cn2c1N(C)CC1CCCCC1	-5	-9
68	C=CCNC(=O)C(NC(=O)c1cccc(C)c1)C1CCN(C(=O)c2ccccc2OC)CC1 (stereo not drawn)	-1	8

# Continuation:
nr	Structure	NPYLR7 ag	NPYLR7 ag max-min
73	CC(c1ccccc1F)N(C)Cc1ccn(C)c(=O)c1 (stereo not drawn)	11	9
74	COc1cccc(NC(=O)C2(C)CCN2Cc2c(F)cccc2F)c1 (stereo not drawn)	8	1
75	COc1cccn2c(N(C)Cc3cccs3)c(C)nc12	-5	-9
76	O=C(c1ccc2c(c1)OCCO2)N1CCc2c([nH]c3ccccc23)C1c1ccccc1F (stereo not drawn)	4	-2
77	COc1ccccc1C1CCCN1C(=O)c1cc2n(n1)CCNC2 (stereo not drawn)	-8	-12
78	O=C(/C=C/c1ccc2c(c1)OCO2)NC1CCCc2ccccc21 (stereo not drawn)	-8	-15
79	CCOc1cc(CCl)nc2nc(C(F)(F)F)nn12	11	8
80	O=C1NC(c2ccc(Cl)cc2)c2c1oc1ccccc1c2=O (stereo not drawn)	-6	-1
81	O=C(CCOc1ccc(Cl)cc1)N1CCOC(COCc2cccc(C(F)(F)F)c2)C1 (stereo not drawn)	3	0
82	O=C(Cn1nc2c(c1NC(=O)CCc1ccccc1)CSC2)NCc1ccccc1	-5	-1
83	CC(C)(C)NC(=O)CN1CCCN(C(=O)c2cccc3ccccc23)CC1	2	-1
84	Cc1nc(SCc2cccc(C(=O)O)c2)nc(N(C)C)c1C	8	9

nr	Structure	NPYLR7 ag	NPYLR7 ag max-min
85	O=S(=O)(NCCOc1ccc(-c2ccc(F)cc2)nn1)c1ccccc1C(F)(F)F	-7	-6
86	Fc1ccc(Oc2cc(N3CCN(c4ccccc4F)CC3)ncn2)cc1Cl	-3	1
87	CCC1=C(C(=O)OC)C(c2cccc(C(F)(F)F)c2)NC(=S)N1 (stereo not drawn)	-8	15
88	CCn1cc(Cn2ccnc2-c2cc3ccccc3nc2OC)cn1	-2	-6
89	Cc1nonc1C1CCCN1C(=O)c1cn(C/C=C/c2ccccc2)nn1 (stereo not drawn)	9	7
90	COc1ccc(/C=C2N=C(/C=C/c3ccccc3)OC/2=O)cc1	-2	-6
91	CN1CCN(n2c3c(c(SCC(=O)Nc4ccc(F)c(Cl)c4)nc2=O)CCCC3)CC1	-3	-8
92	Cc1ccc2cc(CN(CC(C)C)C(=O)c3cccnc3)c(=O)[nH]c2c1	-3	-6
93	CCCCCCn1c(N2CCN(Cc3ccc(Cl)c(Cl)c3)CC2)nc2c1c(=O)[nH]c(=O)n2C	0	1
94	CCCc1nc(N2CCCN(S(C)(=O)=O)CC2)c2c(C)nn(-c3ccc(F)cc3)c2n1	-6	8
95	O=C(c1ccc2c(c1)CCO2)N1CCN(Cc2ccc(-c3noc(-c4cccnc4)n3)cc2)CC1	6	7
96	O=C(NCCCn1ccnc1)c1cncn1-c1cccc(-c2cccc(OC(F)(F)F)c2)c1	1	-1

nr	Structure	NPYLR7 ag	NPYLR7 ag max-min
97	CCOc1cccc(CN2CCC(Cc3ccc(-c4ccccc4)cc3)CC2)c1	2	2
98	C=CCSc1nnc(-c2ccc(F)cc2)n1CC=C	7	8
99	Cc1ccc(-c2cn(S(=O)(=O)c3ccc(Cl)cc3)nc2N)cc1F	7	0
100	COC(C(=O)N1CCOC(COc2cccc(C(F)(F)F)c2)C1)c1ccccc1 (stereo not drawn)	18	12
101	Clc1cccc(C(CNCc2ccccn2)N2CCOCC2)c1 (stereo not drawn)	3	1
102	Cc1sc2ncnc(Sc3nnc(-c4sc5ccccc5c4Cl)o3)c2c1C	-1	-2
103	CCn1c(-c2ccc3c(c2)CCO3)nc2cc(C(=O)OC)cnc21	2	0
104	CC1=C(CC(=O)O)c2cc(F)ccc2/C1=C\c1ccc(S(C)(=O)=O)cc1	3	-10
105	N#Cc1ccc(S(=O)(=O)N2CCN(c3ccccc3F)CC2)cc1	0	-3
106	CCOc1ccc(-c2ccc(=O)n(CCNC(=O)NCc3ccccc3)n2)cc1	-2	-2
107	COc1ccccc1NC(=O)N(CC(=O)N1CC(=O)N(c2ccc(Cl)cc2)C1)C1CC1	-3	-2
108	O=C(c1ccccc1OC(F)(F)F)N1CCN(Cc2cc(=O)c(OCc3cccc(F)c3)co2)CC1	26	16

nr	Structure	NPYLR7 ag	NPYLR7 ag max-min
109	CCc1nsc(N2CCCC(CO)C2)n1 (stereo not drawn)	-5	-8
110	Cc1cc(Br)cc2c1=NC(=O)C=2c1sc(=S)[nH]c1O	-2	-6
111	CCCCc1ccc(NC(=O)CSC2=NS(=O)(=O)c3ccccc3N2)cc1	11	8
112	C(=N/N1CCOCC1)/c1c(-c2ccccc2)[nH]c2ccccc12	0	-8
113	COc1ccc(CNC(=O)CCC2CCCN(Cc3cccc(SC)c3)C2)c(OC)c1 (stereo not drawn)	2	1
114	O=C1Nc2cc(SCc3ccccc3)ccc2/C1=N/N1CCOCC1	-1	-4
115	Cc1ccc(-n2nc(C)c(=O)c(-c3ccccc3)c2NC(=O)C(C)C)cc1	9	5

# Another view of two compounds above.
109: CCc1nsc(N2CCCC(CO)C2)n1 (stereo not drawn)
  NPYLR7 ag: -5 | NPYLR7 ag max-min: -8
110: Cc1cc(Br)cc2c1=NC(=O)C=2c1sc(=S)[nH]c1O
  NPYLR7 ag: -2 | NPYLR7 ag max-min: -6

# Not all compounds are listed; the hit share may differ from the screen's.
